Lassa entry inh – qHTS for Inhibitors of binding or entry into cells for Lassa Virus; actives 1.2% (n = 300,000); Lassa virus pseudotype entry inhibition, cell reporter; control for the full effect not named in the record; Potency, µM (titrated, usually from 37.9 µM), without a hit: top-dose activity change, negative = inhibition, hits mostly inhibitors; active means well fitted inhibition curve with a large enough effect; inconclusive means small, poorly fitted or top-dose-only effect, or effect the other way; inactive means flat fitted curve, though single readings scatter; tested in HEK293 cells; further: on the % scale 0 is the no-effect control and ±100 the full control effect; nearly all actives have a fitted effect of over 50% in size; luciferase read-out
MARV entry inh – qHTS for inhibitors of binding or entry into cells for Marburg Virus; Marburg virus pseudotyped entry inhibition, cell reporter; control for the full effect not named in the record; about a third of the inactives were read at about 46 µM; Potency, µM (top dose mostly 37.8 µM), for inactives: at the highest dose activity change, negative = inhibition, hits mostly inhibitors; actives 1.8% (n = 300,000); AID 540276, 2011; active = well fitted inhibition curve with a large enough effect; inconclusive = small, poorly fitted or top-dose-only effect, or effect the other way; inactive = flat fitted curve, though single readings scatter; tested in HEK293 cells; about a fifth of its hits are not listed in these tables; further: on the % scale 0 is the no-effect control and ±100 the full control effect; luciferase read-out
SARS PLP yeast – qHTS of Yeast-based Assay for SARS-CoV PLP; actives 0.19% (n = 330,000); S. cerevisiae expressing SARS-CoV PLpro, growth rescue; control for the full effect not named in the record; Potency, µM (series often up to 32.9 µM), inactives show at the top dose activity, positive = growth rescue; active means well fitted rising curve with a large enough effect; inconclusive means small, poorly fitted or top-dose-only effect; inactive means no such curve, though single readings can be large or run the other way; further: 0% is about no effect; nearly all actives have a fitted effect of over 55% in size; growth read by luminescence after 48 h
StopGo reporter – High Throughput Screening for Foot and Mouth Disease Virus Antivirals | human cells with a luciferase reporter of 2A StopGo recoding; control for the full effect not named in the record | Potency, µM (titrated, usually from 57.9 µM), without a hit: at the highest dose signal change, negative = less light | actives 1.2% (n = 410,000); active = well fitted falling curve with a large enough effect; inconclusive = small, poorly fitted or top-dose-only effect; inactive = no such curve, though single readings can be large or run the other way; tested in HEK293T cells; further: on the % scale 0 is the no-effect control and ±100 the full control effect; nearly all actives have a fitted effect of over 45% in size; luciferase light after 4 h
Cruzain inh Det – qHTS Assay for Promiscuous and Specific Inhibitors of Cruzain (with detergent) | purified cruzain, Z-FR-AMC fluorescence, 0.01% Triton | Potency, µM, inactives show max response, negative = inhibition, hits mostly inhibitors | actives 0.43% (n = 200,000) | AID 1478, 2009;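 further: plate controls were neutral wells for no effect and buffer without enzyme for full effect; nearly all actives have a fitted effect of over 40% in size; top concentration of the series not given in the record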
Target sequence (P25779 123-467 limits assumed): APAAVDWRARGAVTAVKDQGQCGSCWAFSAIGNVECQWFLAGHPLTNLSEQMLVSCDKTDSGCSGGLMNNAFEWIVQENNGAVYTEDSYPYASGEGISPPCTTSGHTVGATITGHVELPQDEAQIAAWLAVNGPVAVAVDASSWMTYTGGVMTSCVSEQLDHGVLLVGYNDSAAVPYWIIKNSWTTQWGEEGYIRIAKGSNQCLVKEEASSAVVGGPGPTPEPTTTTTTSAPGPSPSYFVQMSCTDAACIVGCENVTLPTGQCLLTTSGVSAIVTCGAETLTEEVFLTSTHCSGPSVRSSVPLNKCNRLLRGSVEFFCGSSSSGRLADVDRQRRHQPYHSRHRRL
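Z-FR-AMC hydrolysis (2 uM substrate) by cruzain (1.5 nM) monitored kinetically at ex 360/em 450 nm after 15 min room-temperature compound exposure; 0.01% Triton X-100, pH 5.5, 5 mM DTT.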
RE007 growth inh – qHTS Assay for Inhibitors of the HIV-1 protein Vpr | S. pombe RE007 Vpr strain, BacTiter-Glo ATP luminescence, 24 h; control for the full effect not named in the record | Potency, µM (titrated, usually from 92.2 µM), for inactives: at the top dose activity change, negative = less growth | actives 0.21% (n = 360,000) | AID 651644, 2012; active = well fitted falling curve with a large enough effect; inconclusive = small, poorly fitted or top-dose-only effect; inactive = no such curve, though single readings can be large or run the other way;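 further: on the % scale 0 is the no-effect control and ±100 the full control effect; nearly all actives have a fitted effect of over 50% in size; the assay follows cell death caused by Vpr and the record does not say whether a fall means rescue or toxicity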
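Fission yeast strain RE007, carrying one chromosomally integrated HIV-1 vpr copy, was seeded at OD 0.01 in PMG+AL medium with 23 nL pinned compound. After 24 h at 30 °C and 99% humidity, viability was read by BacTiter-Glo luminescence.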
Cruzain inh noDet – qHTS Assay for Promiscuous and Specific Inhibitors of Cruzain (without detergent); Cruzipain (Trypanosoma cruzi), P25779; purified cruzain, Z-FR-AMC fluorescence, no detergent; Potency, µM, for the others: max response, negative = inhibition, most hits filed as inhibitors; actives 2.3% (n = 200,000); AID 1476, 2009;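 further: plate controls were enzyme without inhibitor for no effect and buffer without enzyme for full effect; nearly all actives have a fitted effect of over 40% in size; top concentration of the series not given in the record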
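Purified cruzain at 1.5 nM, pre-incubated 15 min with compound at room temperature in 100 mM sodium acetate pH 5.5, 5 mM DTT, 0.00005% Triton X-100. Reaction started with 2 uM Z-FR-AMC; AMC fluorescence increase over 60 s gives rate.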
NS1 inh – qHTS Assay for Inhibitors of Influenza NS1 Protein Function | S. cerevisiae slowed by influenza A NS1, growth recovery by OD600 | Potency, µM (highest dose often 46.1 µM), inactives show at the highest dose activity, positive = more growth | actives 0.4% (n = 270,000) | AID 2326, 2010; active means well fitted rising curve with a large enough effect; inconclusive means small, poorly fitted or top-dose-only effect; inactive means no such curve, though single readings can be large or run the other way; further: nearly all actives have a fitted effect of over 50% in size
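S. cerevisiae expressing influenza A NS1, grown in glucose, washed, then diluted 1:100 into pH 6.0 -URA galactose medium with 23 nl compound. Growth recovery read as OD600; NS1-free strain serves as control.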
An asterisk follows results filed as active; ? = inconclusive; / = not tested or not shown; & = joins results of further samples; [ ] = remark or other dose. Unless noted, the call rests on the fitted dose curve; in most records, active means well fitted curve in the direction sought with a large enough effect; inconclusive means small, poorly fitted or top-dose-only effect, or another doubt; inactive means no such curve, though single readings can be large; an effect the other way counts as inactive or inconclusive. Potency means the concentration at half of the fitted maximal effect.

Values run as follows: NS1 inh	StopGo reporter	RE007 growth inh	MARV entry inh	SARS PLP yeast	Cruzain inh noDet	Lassa entry inh	Cruzain inh Det
CCn1cc([N+](=O)[O-])c(C(=O)Nc2ccc3c(c2)OCCO3)n1
→ ?	/	3%	10%	-5%	-14%	-19%	-1.4%
O=C(NCCc1ccccc1)C(=O)NCC1OCCN1S(=O)(=O)c1ccc2c(c1)OCCO2 (configuration not stated)
→ 16%	-17%	5%	-23%[46.1 µM]	9%	/	7%[46.1 µM]	/
C=CCSc1nnc(-c2cc3c(-c4ccccc4)nn(C)c3s2)n1C
→ -77%	-29%	2%	?	-10%	?	?	-0.3%
COc1ccc(S(=O)(=O)NCC2(N3CCOCC3)CCCCC2)cc1OC
→ /	17%	-7%	0%[46.1 µM]	-2%	/	10%	/
COc1ccc(CNCCC2(Cc3ccccc3)CC(C)N(C)CC2C)cc1OC (configuration not stated)
→ 0%	-8%	1%	/	1%	/	/	/
CCOc1ccccc1NC(=O)CSC1=Nc2ccccc2C2=NC(CC(=O)NC3CCCCC3)C(=O)N12 (configuration not stated)
→ /	-15%	/	7%[46.1 µM]	/	-4%	-22%[46.1 µM]	-5.0%
Cc1nn(CC(=O)O)c(C)c1C
→ 2%	?	-3%	6%	8%	-5%	1%	9.7%
CCOC(=O)c1sc(NC(=O)c2ccc(OC)cc2)nc1C
→ -2%	41%[activator]	1%	10%[46.1 µM]	0%	/	9%[46.1 µM]	/
O=C(Nc1ccc(O)cc1)C1CC=CCC1 (configuration not stated)
→ 13µM*	0%	-14%	?	3%	-1%	0%	-1.2%
Cc1cc(C(=O)N2CCN(c3ncccn3)CC2)cs1
→ -3%	8%	-10%	-15%	-2%	-8%	3%	2.0%
CCC(NC(=O)c1ccc(C#CC2(O)CCCCC2)cc1)C(=O)O (configuration not stated)
→ 2%	-8%	-7%	?	1%	/	10%	/
Cc1sc(NC(=O)c2ccccc2)c(C(c2ccc(Cl)cc2)N2CCN(CCO)CC2)c1C (configuration not stated)
→ -12%	11%	32%	?	1%	10%	?	-12%
COCc1nnc(SCC(=O)Nc2cccc(Cl)c2C)n1-c1ccccc1
→ -17%	-16%	-22%	-10%	0%	-7%	3%	5.2%
O=C(O)c1cc2cc(OCc3ccccc3)ccc2[nH]1
→ -63%	/	-19%	-2%&14%	-8%	-4%	12%	-0.9%
CCC(NS(=O)(=O)c1ccc2c(c1)NC(=O)C(C)C(=O)N2)c1cccs1 (configuration not stated)
→ 6%	-30%	-14%	/	-3%	/	/	/
Cc1cccc(C)c1NC(=O)c1cc2c(=O)c3ccccc3oc2nc1C(F)(F)F
→ 5%	-5%	-15%	-16%	4%	5%	-7%	-1.9%
CCOC(=O)c1cccc(NC(=O)c2ccc(N(C)C)cc2)c1
→ 7%	?	-3%	?	-9%	-7%	?	-5.5%
CCC(=NCCCn1ccnc1)c1c(O)n(-c2ccccc2)c(=O)[nH]c1=O
→ 3%	-5%	-12%	14%[46.1 µM]	1%	/	22%[46.1 µM]	/
Cc1ccc(Cl)c(OCC(=O)NCc2ccco2)c1
→ 3%	25%	-1%	9%	2%	-2%	0%	-5.6%
COc1ccc(N2C(=O)C(CC(N)=O)N(NC(=O)CCc3ccccc3)C2=O)cc1 (configuration not stated)
→ /	0%	-23%	-1%[46.1 µM]	1%	/	-9%[46.1 µM]	/

Other entries follow.
Values run as follows: NS1 inh	StopGo reporter	RE007 growth inh	MARV entry inh	SARS PLP yeast	Cruzain inh noDet	Lassa entry inh	Cruzain inh Det
CCCOc1ccc(-c2csc(N)n2)cc1[N+](=O)[O-]
→ -25%	35%[activator]	?	?	-98%	-7%	?	-14%
COc1ccc(Cl)cc1NC(=O)C(C)Sc1nnc(C2CC2)n1C1CC1 (configuration not stated)
→ /	-20%	-14%	6%	-20%	/	6%	/
CN1CCN(c2ccc(CNS(=O)(=O)c3ccccc3)cc2)CC1
→ 6%	14%	-10%	20%[14.2 µM]	-1%	/	3%	/
COc1ccc(NC(=O)CN2C(=O)C(C)SC(C)C2=O)c(OC)c1 (configuration not stated)
→ 14%	29%	4%	/	25%	10%	/	-0.6%
O=C(CCCC(=O)n1cnc2ccccc21)n1cnc2ccccc21
→ 13%	2%	13%	2%	2%	0%	5%	3.8%
O=C1Cc2ccccc2C(=O)N1Cc1ccccc1
→ -3%	0%	17%	-20%	3%	?	4%	-15%
Cc1cccc(Cn2nc(C)cc2NC(=O)CCCn2ccc([N+](=O)[O-])n2)c1
→ /	-19%	9%	?	-5%	/	-7%[46.1 µM]	/
COc1ccc(CCNC(=O)CCc2cn(Cc3ccc(F)cc3)c3ccccc23)cc1OC
→ /	-24%	/	/	/	?	?	-4.2%
COc1ccc(OC)c(-n2nnnc2SCC(=O)NCc2ccc3c(c2)OCO3)c1
→ -10%	13%	13%	0%&15%	0%	-8%	9%	0.0%
COc1ccc(C(O)Cn2c(=N)n(CCCN(C)C)c3ccccc32)cc1 (configuration not stated)
→ 7%	-16%	10%	?	-1%	28%	-15%	2.7%
CCCC(=O)Nc1nnc(SCC)s1
→ 16%	34%[activator]	21%	3%	9%	-12%	11%	3.3%
Cn1ncc(C#N)c1NC(=O)C1CC(c2ccccc2Cl)=NO1 (configuration not stated)
→ 0%	28%	-8%	/	0%	/	/	/
CC1=NN(c2ccccc2)C(=O)/C1=C\C=C1/N(C)c2ccccc2C1(C)C
→ -1%	-22%	7%	11µM*	-82%	-2%	?	-21%
Cc1ccn2c(=O)nc(SCC(=O)N3CCCC3)nc2c1
→ /	-15%	4%	?	7%	/	5%	/
CCOc1cccc(C2c3c(oc4ccc(F)cc4c3=O)C(=O)N2CCOC)c1 (configuration not stated)
→ /	-15%	/	5%[46.1 µM]	/	9%	15%[46.1 µM]	-0.6%
COc1ccc(CCNC(=O)c2cnc3ccccn3c2=O)cc1
→ -19%	-7%	11%	8%	4%	-5%	1%	-1.7%
Cc1c(C=O)c2ccccc2n1Cc1ccc([N+](=O)[O-])cc1
→ 5%	?	39%	?	?	-7%	?	-7.0%
COc1cc(NC(=O)C2CCCN(c3ncnc4c3nc3n4CCCCC3)C2)cc(OC)c1OC (configuration not stated)
→ -9%	12%	-3%	?	2%	/	?	/
COc1ccc(-c2ncnc(C(F)(F)F)c2-c2csc(C)n2)c(O)c1
→ 5%	-23%	2%	/	0%	/	/	/
COc1cccc(CNC(=O)CN2C(=O)CSc3ccc(S(=O)(=O)N4CCCC4)cc32)c1
→ /	-4%&-11%	-20%	/	-2%	2%	9%[46.1 µM]	-1.2%

(more compounds)
Values run as follows: NS1 inh	StopGo reporter	RE007 growth inh	MARV entry inh	SARS PLP yeast	Cruzain inh noDet	Lassa entry inh	Cruzain inh Det
COc1cccc(CN2CCN(C(=O)c3cccc4ccccc34)CC2)c1
→ -24%	-23%	-12%	/	-6%	/	/	/
Cc1ccc(Sc2c(C)nn(C(=O)C3CC3)c2C)cc1
→ -21%	7%	9%	3%	-8%	4%	12%	1.2%
CC(C)OCCCNCc1cccs1
→ -8%	1%	-17%	1%	-6%	5%	1%	5.3%
CC(C)NS(=O)(=O)c1ccc(CCC(=O)N2CCCC2)cc1
→ -1%	17%	-1%	?	0%	/	8%	/
CC(C)(C)NCC1(CO)SC(N)=NC1=O (configuration not stated)
→ -1%	-5%	3%	27%	3%	10%	?	-2.6%
CN(C)c1ccc(-c2cc([C@H]3[C@@H]4C=CCC[C@@]4(C)C(=O)N3Cc3ccccc3)ccc2F)cc1
→ ?	-11%	3%	/	-4%	/	/	/
O=S1(=O)CC2N=C(N(Cc3c(F)cccc3Cl)c3ccccc3F)SC2C1 (configuration not stated)
→ -4%	6%	0%	?	27%	-6%	?	-4.5%
CCN(CC)CCCNC(=O)C1c2cc(OC)c(OC)cc2C(=O)N(C)C1c1cccnc1 (configuration not stated)
→ /	25%	-7%	27%[46.1 µM]	3%	/	5%[46.1 µM]	/
O=C(c1cnc(N2CCN(c3ccccn3)CC2)c2ccccc12)N1CCN(c2cccc(Cl)c2)CC1
→ /	8.9µM*	-3%	?	-11%	/	?	/
COc1cc2c(cc1NC(=O)c1cccc(Br)c1)CCCC2
→ -10%	-7%	-17%	-20%	-28%	0%	-20%	-3.1%
COc1cc(/C=C/c2[nH]c(=O)[nH]c(=O)c2[N+](=O)[O-])ccc1OCCC(C)C
→ /	28µM*	15%	-30%[46.1 µM]	1%	/	?	/
CCN(CC)S(=O)(=O)c1ccc(C(=O)Nc2ccc(Cc3ccncc3)cc2)cc1
→ -10%	?	-11%	?	-2%	/	?	/
Cc1cc(C)c(Cn2c(=O)n(CCCC(=O)NCc3ccco3)c(=O)c3sccc32)c(C)c1
→ 8%	-22%	2%	?	-11%	?	-15%	4.0%
C#CC[N+](C)(C)CCCCCCCCCC
→ -1%	0%	-8%	-17%	3.2µM*	-3%	-29%	-0.3%
CC1CCCCN1Cc1c(O)ccc2c(=O)c(-c3ccc(Cl)cc3)c(C(F)(F)F)oc12 (configuration not stated)
→ /	0%	/	7%[46.1 µM]	/	-7%	19%[46.1 µM]	?
CCCCc1nnc(NC(=O)C(C)Sc2nc(C)cc(=O)[nH]2)s1 (configuration not stated)
→ -8%	10%	6%	6%	-2%	4%	-2%	-0.8%
O=C(C[n+]1ccc2ccccc2c1)c1ccccc1
→ 5%	-4%	-16%	?	-1%	/	?	/
